Screening results deposited in PubChem BioAssay by ICCB-Longwood Screening Facility, Harvard Medical School.
HCMV UL50-53 inh: inhibitors of HCMV UL50-UL53 interaction, biochemical, HTRF. HCMV UL50-UL53 nuclear egress complex (human cytomegalovirus). normalized percent inhibition. inhibition, % (test concentration not listed). hit rate 0.15% among 190,000;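 active means both replicates at 50% or more, plus weaker picks with an unusually low signal ratio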;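 further: stock transfer was 100 nL into about 20 µL; 0% = negative control wells and 100% = wells with untagged competitor protein; inactives centre near -12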
GIV-Gai inh: inhibitors of GIV peptide binding to Galpha-i3, primary screen, biochemical, fluorescence polarization, FITC-GIV GBA peptide, rat Galphai3; AID 1224905, 2016; hit rate 0.42% among 210,000; percent of control (FP), % (concentration not given with the values); 90 min; stronger effect = lower value; scaled: aluminum fluoride 0%, vehicle 100%;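 active means replicate mean at 85% of control or lower, very high polarization wells dropped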;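 further: wells of about 15 µL received 100 nL stock; the first replicate is given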
Target sequence (P08753 whole entry, looked up): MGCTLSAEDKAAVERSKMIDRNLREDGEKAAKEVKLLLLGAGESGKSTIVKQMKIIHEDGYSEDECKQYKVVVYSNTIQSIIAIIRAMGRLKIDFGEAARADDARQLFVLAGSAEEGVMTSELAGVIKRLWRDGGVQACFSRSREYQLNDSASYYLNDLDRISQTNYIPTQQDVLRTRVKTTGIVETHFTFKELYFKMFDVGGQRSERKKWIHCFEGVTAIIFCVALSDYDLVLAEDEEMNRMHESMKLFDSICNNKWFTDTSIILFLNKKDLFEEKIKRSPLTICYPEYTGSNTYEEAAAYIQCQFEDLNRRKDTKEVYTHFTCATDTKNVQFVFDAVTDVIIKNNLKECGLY
Sa growth inh: S. aureus growth inhibition at 42 and 30 °C, primary screen, LtaS inhibitor project, RN4220, two temperatures. OD600, 20 h, 42 °C; stronger effect = lower value. relative growth, % (no concentration beside the values). hit rate 0.53% among 170,000. AID 720641, 2013;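 active means growth at 42 °C up to 50% and 20 or more points under that at 30 °C, or under 10% at both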;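 further: 300 nL library stock went into each well; scaled to the means of positive and negative controls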
Sa growth inh second temp: further read-out of Sa growth inh, marked with its call; relative growth, %; measured here: growth at 30 °C;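 optical density after 20 h as mean of two plates; 100% = untreated growth and lower means inhibition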
The depositor's hits bear a star; & = joins results of further samples.

What do the screens show for `Cn1c(C(C#N)C(=O)CC23CC4CC(CC(C4)C2)C3)nc2ccccc21` (configuration not stated)?
HCMV UL50-53 inh: 11; Sa growth inh: 101; Sa growth inh second temp: 94

How did CCN(CC)S(=O)(=O)c1ccc2c(c1)N(CC(=O)N1CCN(c3cccc(C)c3)C(C)C1)C(=O)CO2 (configuration not stated) do in these assays?
GIV-Gai inh: 97; Sa growth inh: 111; Sa growth inh second temp: 86

How did COC(=O)c1cn(-c2ccccc2)nc1N do in these assays?
HCMV UL50-53 inh: -8; GIV-Gai inh: 102&95; Sa growth inh: 98; Sa growth inh second temp: 88

What do the screens show for `CCOc1ccc(-n2c(CCC(=O)O)ccc2-c2ccc(Br)cc2)cc1`?
HCMV UL50-53 inh: -34; GIV-Gai inh: 108; Sa growth inh: 98; Sa growth inh second temp: 84

Results for Cc1ccc2cc(C#N)c(SCC(=O)NCc3ccco3)nc2c1 ?
HCMV UL50-53 inh: -23; GIV-Gai inh: 106; Sa growth inh: 109; Sa growth inh second temp: 86

What do the screens show for `CCc1ccccc1N(CC)C(=O)c1c(C)oc2ncn(C)c(=O)c12`?
GIV-Gai inh: 104; Sa growth inh: 96; Sa growth inh second temp: 91

How did Cc1cc(C)cc(NC(=O)NCc2csc(-c3cccs3)n2)c1 do in these assays?
HCMV UL50-53 inh: -38; GIV-Gai inh: 105; Sa growth inh: 87; Sa growth inh second temp: 89

Results for Cc1ccc(C(=O)Nc2ccc3n[nH]nc3c2)cc1 ?
HCMV UL50-53 inh: -76; GIV-Gai inh: 104

How did CC1CCCN(S(=O)(=O)c2cc(C(=O)NCCc3ccccc3)n(C)c2)C1 (configuration not stated) do in these assays?
GIV-Gai inh: 101; Sa growth inh: 86; Sa growth inh second temp: 85

What do the screens show for `O=C1C2C3C=CC(C3)C2C(=O)N1CCCCCCN1C(=O)C2C3C=CC(C3)C2C1=O` (configuration not stated)?
HCMV UL50-53 inh: -3; GIV-Gai inh: 105

What do the screens show for `CC1C(=O)N2CCCc3cc(S(=O)(=O)NCc4ccc(F)cc4)cc1c32` (configuration not stated)?
HCMV UL50-53 inh: -5; GIV-Gai inh: 100; Sa growth inh: 94; Sa growth inh second temp: 81

How did COCCNC(=O)c1ccc(-n2c(-c3ccccc3)cc3c2CCCCC3)cc1 do in these assays?
HCMV UL50-53 inh: 21; GIV-Gai inh: 104; Sa growth inh: 114; Sa growth inh second temp: 97

What do the screens show for `Cc1nnsc1-c1n[nH]c(=S)n1C1CC1`?
HCMV UL50-53 inh: -13; GIV-Gai inh: 104; Sa growth inh: 105; Sa growth inh second temp: 93

How did N#C/C(C(=O)Nc1cc(C(F)(F)F)ccc1Cl)=C1\CCCN1 do in these assays?
HCMV UL50-53 inh: -32; Sa growth inh: 94; Sa growth inh second temp: 79

Results for Cc1ccc(S(=O)(=O)NNC2CS(=O)(=O)c3ccccc32)cc1 (configuration not stated) ?
HCMV UL50-53 inh: -41; GIV-Gai inh: 104; Sa growth inh: 85; Sa growth inh second temp: 92

Results for O=C(NCc1ccccc1)c1ccc(CSc2nc3cccnc3n2Cc2cccc(F)c2)cc1 ?
GIV-Gai inh: 106; Sa growth inh: 131; Sa growth inh second temp: 110

What do the screens show for `CC(C)C(=O)Nc1ccc2oc(=O)ccc2c1`?
HCMV UL50-53 inh: -25; Sa growth inh: 110; Sa growth inh second temp: 91

How did CCCN(CCC)CCNC(=O)Cn1ncc2c([nH]c3ccc(C)cc32)c1=O do in these assays?
GIV-Gai inh: 110; Sa growth inh: 105; Sa growth inh second temp: 90

Results for FC(F)(F)C(Oc1nc(N2CCCCC2)nc(N2CCCCC2)n1)C(F)(F)F ?
HCMV UL50-53 inh: -26; GIV-Gai inh: 102; Sa growth inh: 109; Sa growth inh second temp: 86

Results for Cc1cccc(CSCc2nnc(NC(=O)/C=C/c3ccccc3)s2)c1 ?
GIV-Gai inh: 101; Sa growth inh: 89; Sa growth inh second temp: 81

Among those listed so far, 2 contain a furan ring, fused or not.
Results for Cc1ccc2cc(C#N)c(SCC(=O)NCc3ccco3)nc2c1 ?
HCMV UL50-53 inh: -23; GIV-Gai inh: 106; Sa growth inh: 109; Sa growth inh second temp: 86

What do the screens show for `CCc1ccccc1N(CC)C(=O)c1c(C)oc2ncn(C)c(=O)c12`?
GIV-Gai inh: 104; Sa growth inh: 96; Sa growth inh second temp: 91

(continued)
What do the screens show for `COc1ccc(OC)c(C2C(C(=O)Nc3ccc(Br)cn3)=C(C)NC3=C2C(=O)CCC3)c1` (configuration not stated)?
HCMV UL50-53 inh: 0; GIV-Gai inh: 102

Results for COc1cccc(-c2nc(SCC(=O)NC3CCCC3)c(-c3ccc(C)cc3)[nH]2)c1 ?
HCMV UL50-53 inh: 4; GIV-Gai inh: 100; Sa growth inh: 105; Sa growth inh second temp: 97

How did CCN(c1ccccc1)S(=O)(=O)c1ccc(-c2n[nH]c(C)c2C)s1 do in these assays?
HCMV UL50-53 inh: -22; GIV-Gai inh: 104; Sa growth inh: 81; Sa growth inh second temp: 58

Results for CN1CCN(CCCNC(=O)c2ccc3c(c2)N(Cc2ccc(F)cc2)CCS3)CC1 ?
HCMV UL50-53 inh: 0; GIV-Gai inh: 103; Sa growth inh: 119; Sa growth inh second temp: 94

What do the screens show for `c1ccc(-c2c(-c3ccccc3)n(Cc3ccco3)c3ncn4nc(-c5ccccn5)nc4c23)cc1`?
HCMV UL50-53 inh: -26; GIV-Gai inh: 99; Sa growth inh: 90; Sa growth inh second temp: 80

Results for O=C1CC2NCCc3cccc1c32 (configuration not stated) ?
HCMV UL50-53 inh: -37; GIV-Gai inh: 106; Sa growth inh: 87; Sa growth inh second temp: 70

Results for O=C(c1ccc([N+](=O)[O-])cc1)N1c2ncnn2C2(CCCCC2)[C@@H]2CCCC[C@@H]21 ?
HCMV UL50-53 inh: -6; GIV-Gai inh: 98; Sa growth inh: 100; Sa growth inh second temp: 89

What do the screens show for `O=C(Cc1nc2ccccc2[nH]c1=O)c1ccc(Cl)cc1`?
HCMV UL50-53 inh: -7; Sa growth inh: 85; Sa growth inh second temp: 88

How did NC(CSCc1ccccc1Cl)C(=O)O (configuration not stated) do in these assays?
GIV-Gai inh: 99; Sa growth inh: 103; Sa growth inh second temp: 94

What do the screens show for `CCOC(=O)c1noc2ncnc(N3CCC(C)CC3)c12`?
GIV-Gai inh: 98; Sa growth inh: 100; Sa growth inh second temp: 92

How did CCCC1=Nc2cc(C(=O)NC3CCCC3)ccc2Sc2ccc(C)cc21 do in these assays?
HCMV UL50-53 inh: -2; GIV-Gai inh: 103; Sa growth inh: 107; Sa growth inh second temp: 88

Results for Cc1ccc(NC(=O)c2cc3cc(OC(F)(F)F)ccc3[nH]2)cc1 ?
HCMV UL50-53 inh: -26; GIV-Gai inh: 106; Sa growth inh: 92; Sa growth inh second temp: 82

How did CN(CC12CC3CC(CC(C3)C1)C2)C(=O)c1ccco1 do in these assays?
HCMV UL50-53 inh: -8; GIV-Gai inh: 105; Sa growth inh: 109; Sa growth inh second temp: 103

How did CC(Nc1ccc(Br)cc1)C(=O)NC(=O)NC1CCCCC1 (configuration not stated) do in these assays?
HCMV UL50-53 inh: -2; Sa growth inh: 68; Sa growth inh second temp: 98

What do the screens show for `COc1cccc(CNC(=O)C2CCC(CNS(=O)(=O)c3ccc(Br)s3)CC2)c1` (configuration not stated)?
HCMV UL50-53 inh: -8; GIV-Gai inh: 102; Sa growth inh: 100; Sa growth inh second temp: 97

What do the screens show for `Cc1cnc(-c2ccc(Br)cc2)nc1`?
HCMV UL50-53 inh: 2; GIV-Gai inh: 107; Sa growth inh: 109; Sa growth inh second temp: 106

What do the screens show for `CCOc1ccc2nc3c(=O)[nH]c(=O)[nH]c3nc2c1`?
HCMV UL50-53 inh: -105; Sa growth inh: 92; Sa growth inh second temp: 82

What do the screens show for `CC(C)c1ccc(/C=C/C(=O)NC(=S)Nc2ccc(C(=O)O)cc2)cc1`?
GIV-Gai inh: 98; Sa growth inh: 82; Sa growth inh second temp: 53

How did COc1ccc(C2=NN(CN3C(=O)C(=O)c4ccccc43)C(c3ccc(OC)cc3)C2)cc1 (configuration not stated) do in these assays?
HCMV UL50-53 inh: -4; GIV-Gai inh: 102

Results for CCOC(=O)c1nc2cc(C)c(C)cc2nc1NCc1ccccn1 ?
HCMV UL50-53 inh: -65; GIV-Gai inh: 131

Results for O=C1CN(Cc2nc3cc(Cl)ccc3c(=O)[nH]2)CCN1 ?
HCMV UL50-53 inh: -2; Sa growth inh: 109; Sa growth inh second temp: 83

How did CCOc1ccccc1C1CC(=O)NC(SCc2cccc3ccccc23)=C1C#N (configuration not stated) do in these assays?
HCMV UL50-53 inh: -26; GIV-Gai inh: 101

Results for O=C(NCc1noc(C2CCCO2)n1)C1CCCCC1 (configuration not stated) ?
HCMV UL50-53 inh: -9; GIV-Gai inh: 101

Results for NNc1nc(-c2ccccc2)c2cc(Cl)ccc2n1 ?
GIV-Gai inh: 107; Sa growth inh: 89; Sa growth inh second temp: 57

How did CCOC(=O)N1CCC(NC(=O)C(CC(C)C)NC(=O)C2CCC(C)CC2)CC1 (configuration not stated) do in these assays?
HCMV UL50-53 inh: -29; GIV-Gai inh: 104; Sa growth inh: 87; Sa growth inh second temp: 83

How did CC1CCN(S(=O)(=O)c2ccc3nc(Nc4ccc(C#N)cc4)ccc3c2)CC1 do in these assays?
GIV-Gai inh: 106; Sa growth inh: 96; Sa growth inh second temp: 94

What do the screens show for `O=C(NCc1ccccc1)C1CCC1`?
HCMV UL50-53 inh: -8; Sa growth inh: 103; Sa growth inh second temp: 91

Results for CN(C)c1ccc(C=Nc2cc(Br)c3c(c2)OCCO3)cc1 ?
GIV-Gai inh: 97; Sa growth inh: 85; Sa growth inh second temp: 81

How did CCOc1ccc(C(=O)Nc2cc(-c3cn4cccnc4n3)ccc2C)cc1OCC do in these assays?
GIV-Gai inh: 104; Sa growth inh: 82; Sa growth inh second temp: 88

How did COc1cccc(-c2nc3c(C#N)c[nH]n3c2NC2CCCCC2)c1OC do in these assays?
HCMV UL50-53 inh: -6; GIV-Gai inh: 96; Sa growth inh: 111; Sa growth inh second temp: 78

How did Clc1ccc(-c2cc3c(nn2)Nc2ccccc2N3)cc1 do in these assays?
GIV-Gai inh: 95; Sa growth inh: 143; Sa growth inh second temp: 92

What do the screens show for `C=CCn1c(-c2ccccc2)nn(CCC#N)c1=S`?
HCMV UL50-53 inh: -10; Sa growth inh: 100; Sa growth inh second temp: 88

Results for CC(C)Cc1cc(C(=O)NC2CCCCC2)no1 ?
GIV-Gai inh: 93; Sa growth inh: 98; Sa growth inh second temp: 94

How did COc1ccc(C23CC4CC(CC(O)(C4)C2)C3)cc1 do in these assays?
HCMV UL50-53 inh: -5; GIV-Gai inh: 102; Sa growth inh: 104; Sa growth inh second temp: 91

What do the screens show for `O=C(/C=C/c1ccccc1)N1CCN(c2ncccn2)CC1`?
HCMV UL50-53 inh: -42; Sa growth inh: 90; Sa growth inh second temp: 94

Results for COc1cccc(NC(=O)CSc2nc(=O)[nH]c3c2CCCC3)c1 ?
GIV-Gai inh: 96; Sa growth inh: 98; Sa growth inh second temp: 93

Results for CC(=O)N1CCOc2cc(S(=O)(=O)NCc3ccc(F)cc3)c(C)cc21 ?
GIV-Gai inh: 93; Sa growth inh: 101; Sa growth inh second temp: 91

Results for CCOC(=O)CC1NCCc2c1[nH]c1ccc(OC)cc21 (configuration not stated) ?
HCMV UL50-53 inh: -26; GIV-Gai inh: 96

How did CCCNS(=O)(=O)c1ccc2c(c1)OCC(=O)N2 do in these assays?
GIV-Gai inh: 97; Sa growth inh: 80; Sa growth inh second temp: 83

What do the screens show for `Cn1c2ccccc2c2nnc(SCc3ccccc3)nc21`?
HCMV UL50-53 inh: -37; GIV-Gai inh: 106; Sa growth inh: 90; Sa growth inh second temp: 83

How did COc1ccc(C2CC(=O)C3=C(C2)NC(C)=C(C(=O)OC2CCCC2)C3c2ccc3c(c2)OCO3)cc1 (configuration not stated) do in these assays?
HCMV UL50-53 inh: -7; GIV-Gai inh: 103

What do the screens show for `COc1cc(/C=N/NC(=O)Cc2csc(C)n2)cc(OC)c1`?
HCMV UL50-53 inh: -34; Sa growth inh: 87; Sa growth inh second temp: 92

Results for Cc1ccc2nc(CSc3ccccc3NC(=O)CN3C(=O)c4ccccc4C3=O)cc(=O)n2c1 ?
HCMV UL50-53 inh: -20; GIV-Gai inh: 111

What do the screens show for `O=c1c2ccccc2nnn1CSc1nnc(Cc2cccs2)n1C1CCCCC1`?
HCMV UL50-53 inh: -16; Sa growth inh: 112; Sa growth inh second temp: 97

Gathered by group, the compounds so far containing a COOH group.
What do the screens show for `CCOc1ccc(-n2c(CCC(=O)O)ccc2-c2ccc(Br)cc2)cc1`?
HCMV UL50-53 inh: -34; GIV-Gai inh: 108; Sa growth inh: 98; Sa growth inh second temp: 84

How did NC(CSCc1ccccc1Cl)C(=O)O (configuration not stated) do in these assays?
GIV-Gai inh: 99; Sa growth inh: 103; Sa growth inh second temp: 94

What do the screens show for `CC(C)c1ccc(/C=C/C(=O)NC(=S)Nc2ccc(C(=O)O)cc2)cc1`?
GIV-Gai inh: 98; Sa growth inh: 82; Sa growth inh second temp: 53
